# Screening results deposited in PubChem BioAssay by National Center for Advancing Translational Sciences (NCATS).
# VDR inhibitor: blocks the human vitamin D receptor | 400,000 compounds, 0.93% hits | VDR-SRC2-3 peptide fluorescence polarization, 2 h | Potency, µM, for inactives: max response, negative = inhibition, actives largely listed as inhibitors; active = well fitted inhibition curve with a large enough effect; inconclusive = small, poorly fitted or top-dose-only effect, or another doubt; inactive = no such curve, though single readings can be large or run the other way; also: series mostly up to about 120 µM
# Target sequence (P11473 whole entry, looked up): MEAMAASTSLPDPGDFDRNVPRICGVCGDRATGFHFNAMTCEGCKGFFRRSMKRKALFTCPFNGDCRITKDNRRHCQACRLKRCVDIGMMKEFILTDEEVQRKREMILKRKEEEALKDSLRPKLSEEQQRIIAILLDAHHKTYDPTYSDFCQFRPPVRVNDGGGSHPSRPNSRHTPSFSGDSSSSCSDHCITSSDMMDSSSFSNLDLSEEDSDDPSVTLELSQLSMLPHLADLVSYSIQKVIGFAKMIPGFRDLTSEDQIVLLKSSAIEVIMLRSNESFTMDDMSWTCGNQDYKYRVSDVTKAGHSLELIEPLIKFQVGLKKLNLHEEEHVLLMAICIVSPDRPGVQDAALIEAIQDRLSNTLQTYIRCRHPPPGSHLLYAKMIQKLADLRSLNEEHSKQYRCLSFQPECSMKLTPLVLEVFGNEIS
#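 Two reagent solutions held at 4 deg C in the dark were dispensed, compounds pinned at 23 nl, and the mixture incubated 2 h at room temperature. Read-out: fluorescence polarization of VDR–SRC2-3 peptide binding.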
# * marks the source's active call; other numbers are inactive results; u = inconclusive. % is scaled to controls: 0 for no effect and ±100 for the full control effect; potency is read from the fitted curve at half-maximal effect. Only part of the results is shown; count on the stated rates, not on these rows.
SMILES,VDR inhibitor
CCNc1ncc2nc(-c3cn(C)c4ccccc34)c(=O)n(C)c2n1,-15.8%
S=c1nc(C23CC4CC(CC(C4)C2)C3)[nH][nH]1,-13.7%
O=C(CSc1nnc(-c2ccccc2)c2ccccc12)NCCN1C(=O)CSC1=O,-6.5%
CCOC(=O)COc1c(C(=O)OC)sc2ncccc12,-9.5%
COC(CNC(=O)C(=O)NCC1CCCN1S(=O)(=O)c1cccs1)OC (configuration not stated),2.8%
O=c1[nH]c(=O)n(C2CCCCC2)c(O)c1C1=Nc2ccccc2SC(c2ccccc2)C1 (configuration not stated),8.7%
C/C(=N\O)C(C)/[N+]([O-])=C/c1nc(C)c(C)n1O (configuration not stated),4.5%
CC(=O)Nc1ccc(CN(C)CC2CCCN(CCc3cccc(C(F)(F)F)c3)C2)cc1 (configuration not stated),-0.8%
COc1ccccc1/C=C/C=N/NC(=O)CCn1cnc2ccccc21,-9.4%
Cc1c(-c2ccc(OCc3ccccc3)cc2)nc2ccccc2c1C(=O)O,1.2%
Cc1ccc(NC(=O)CC(C)CC(=O)NCc2ccccc2)cc1Cl (configuration not stated),-20.8%
CC(C)(C)c1ccccc1NC(=O)COC(=O)CN1C(=O)NC2(CCCC2)C1=O,-0.5%
CN(CC(=O)Nc1ccc2c(c1)OCCO2)CC(=O)Nc1ccc(F)c(F)c1F,8.2%
CCC(=O)Nc1ccccc1C(=O)OCC(=O)c1ccccc1,-0.6%
CCC(=O)N(Cc1cc2c(C)ccc(C)c2[nH]c1=O)C1CCCCC1,-18.0%
Cc1ccc(NC(=O)c2c(NC(=O)Cc3ccccc3)sc3c2CCC3)cc1,7.5%
COC(=O)C[C@H]1c2ccccc2S(=O)(=O)N1C(C)C,-15.8%
COc1ccc(C2C(=O)N(C3CCCCCC3)CC(=O)N2CCC2=CCCCC2)cc1 (configuration not stated),8.0%
CCOC(=O)c1c(-c2ccccc2)n(C)c2ccc(O)cc12,-3.3%
Cc1ccccc1OCC(=O)Nc1ccc2[nH]c(=O)sc2c1,-9.5%
CCN(C(=O)COC(=O)CC(C)c1ccccc1)c1c(N)n(Cc2ccccc2)c(=O)[nH]c1=O (configuration not stated),0.1%
CCOc1ccccc1-c1nc2c(s1)CCc1onc(-c3ccc(OC)cc3)c1-2,-14.2%
O=C(N/N=C/c1cc(Br)ccc1O)c1ccccc1Cl,-11.7%
COc1ccc(Nc2nc3ccc(OC)cc3s2)cc1,3.6%
CCOC(=O)N1CCN(C(=O)c2cccc(N3C(=O)NC4CC3(C)Oc3ccccc34)c2)CC1 (configuration not stated),3.1%

# Retrieved one by one from the list above (6):
SMILES,VDR inhibitor
Cc1c(-c2ccc(OCc3ccccc3)cc2)nc2ccccc2c1C(=O)O,1.2%
Cc1ccc(NC(=O)CC(C)CC(=O)NCc2ccccc2)cc1Cl (configuration not stated),-20.8%
COc1ccc(C2C(=O)N(C3CCCCCC3)CC(=O)N2CCC2=CCCCC2)cc1 (configuration not stated),8.0%
CCOC(=O)COc1c(C(=O)OC)sc2ncccc12,-9.5%
COC(=O)C[C@H]1c2ccccc2S(=O)(=O)N1C(C)C,-15.8%
COc1ccccc1/C=C/C=N/NC(=O)CCn1cnc2ccccc21,-9.4%

# Later entries
SMILES,VDR inhibitor
CCN(CC(=O)Nc1c(F)cccc1F)C(=O)/C=C/c1ccc2ccccc2n1,-5.5%
COc1ccc(C(=O)NCc2ccc3c(c2)OCO3)cc1S(=O)(=O)NCc1ccc(Cl)cc1,12.1%
O=c1[nH]c2cc(Cl)ccc2n1-c1ccccc1,0.1%
CCN(CC)CCCN(C(=O)c1ccc(OC)cc1)c1nc(-c2ccc(OC)cc2)cs1,3.3%
O=C(c1ccc(F)cc1)C1CCN(CCn2c(=S)[nH]c3ccccc3c2=O)CC1,-4.2%
N=C1c2ccccc2-c2ccccc21,0.2%
O=[N+]([O-])c1ccccc1S(=O)(=O)N1CCc2ccccc2C1,-3.6%
Cn1c(N2CCOCC2)cc(=O)n(C)c1=O,6.7%
COc1ccc(CNCc2c(F)cccc2F)cc1OC,-6.0%
COc1ccc(CNC(=O)COC(=O)c2c(NC(C)=O)sc(C)c2C)cc1,7.0%
CC(=O)Nc1ccc(S(=O)(=O)NC(CC(=O)NCCC2=CCCCC2)C(C)C)cc1 (configuration not stated),4.5%
CC1COc2ccccc2C1=O (configuration not stated),7.5%
COc1cc(NC(=O)CN2CCN(c3ccccc3F)CC2)c(C)cc1[N+](=O)[O-],1.8%
O=C1NC2(CCCCCC2)C(=O)N1CCS(=O)(=O)Oc1ccccc1,-5.4%
O=C(CNc1cccc2ccccc12)c1ccc([N+](=O)[O-])cc1,u
CCOC(=O)c1ccccc1NC(=O)COC(=O)CCC(=O)c1ccccc1,-11.5%
COc1ccc(CCNC(C)C(=O)Nc2ccc(S(N)(=O)=O)cc2)cc1 (configuration not stated),0.8%
COC(=O)c1ccc(C(=O)OC)c(NC(=S)N2CCN(C(=O)C3CCCO3)CC2)c1 (configuration not stated),-9.7%
CCCCSCCCNC(=O)CN1C(=O)c2cccnc2Oc2ccc(Cl)cc21,16.7%
Cn1cc(C2NC(=O)c3ccccc3N2)c2ccccc21 (configuration not stated),-12.4%
O=C(Nc1cc(Cl)ccc1Cl)c1ccc2c(c1)N(Cc1cccc(Cl)c1)C(=O)c1ccccc1S2=O (configuration not stated),13.3%
O=C(NCc1cccnc1)c1cc(S(=O)(=O)N2CCCC2)c(Cl)cc1Cl,-0.7%
Cc1cc(Br)cc(C)c1OCCCCN(C)C,15.8%
COc1ccc(NC(=O)c2c(C)oc3ccc(O)c(CN4CCC(C)CC4)c23)cc1Cl,1.5%
CCC1CN(C(=O)N2CCC(C(=O)NCCc3ccc(Cl)cc3)CC2)c2ccccc2O1 (configuration not stated),8.7%

# More results follow.
SMILES,VDR inhibitor
COc1ccc(CCNS(=O)(=O)c2ccc(N3CCCC3=O)cc2)cc1,-10.5%
COc1ccc(-c2nc3n(n2)C(c2cccnc2)C(C(N)=O)=C(C)N3)cc1 (configuration not stated),-8.5%
COC(=O)c1c(C)nn(-c2ccc(F)c(Cl)c2)c1-c1cc(C)on1,-8.6%
Cc1cc(C)n(-c2ccc(C(=O)Nc3cc(S(=O)(=O)N(C)C)ccc3Cl)cc2)n1,-19.9%
C[C@H](NC(=O)NCCc1ccccc1)C(=O)O,-0.5%
O=C(OCC#CCSc1nnc(-c2cccc3ccccc23)o1)c1cccc2[nH]ccc12,12.2%
O=C(N/N=C/c1ccccc1Br)c1ccc(CSc2cccc3cccnc23)cc1,3.3%
Cc1cccc(NC(=O)CNC(=O)CN2CCN(C)CC2)c1C,-9.2%
Cc1ccc(C)c(N2CCN(S(=O)(=O)c3ccc4c(c3)NC(=O)CC(=O)N4)CC2)c1,1.8%
CSc1ccc(C#N)cc1NC(=O)c1ccccc1,23.4%
Cc1ccc(NC(=O)CC(C)S(=O)(=O)c2ccc3c(c2)NC(=O)CO3)c(C)c1 (configuration not stated),13.4%
CCCCc1cc(=O)oc2cc(C)cc(OC(C)C(=O)NCc3ccccn3)c12 (configuration not stated),10.6%
Cc1cc(OCCn2c(CCNC(=O)C3CCCCC3)nc3ccccc32)ccc1Cl,4.4%
COc1cc(NC(=O)c2cc([N+](=O)[O-])ccc2NC(=O)CNCc2ccccn2)cc(OC)c1,2.9%
CCCCc1ccc(S(=O)(=O)N2CCC3(CC2)OCCO3)cc1,-8.0%
O=C1NC(=NCc2ccccc2)S/C1=C\c1ccccc1,-3.8%
CCCCNC(=O)C1CCC(Cn2c(=O)c3sccc3n(CC(=O)Nc3ccccc3)c2=O)CC1 (configuration not stated),4.4%
Cn1c(=O)c2c(nc(CN3CCC(C(N)=O)CC3)n2Cc2c(F)cccc2Cl)n(C)c1=O,-6.3%
O=C(NCc1ccccc1)c1ccc(N2CCC3(CC2)CC(c2ccccc2)=NO3)c([N+](=O)[O-])c1,8.6%
CC1=NNC(=O)/C1=C\c1cn(-c2ccccc2)nc1-c1ccc(Cl)cc1,12.6µM*
CCCS(=O)(=O)N1CCCC(C(=O)NCCc2cccc(C)c2)C1 (configuration not stated),19.7%
CCOC(=O)c1ccc(NC(=O)C2CCCO2)cc1 (configuration not stated),-4.9%
Cn1c(N)c(C(=O)COC(=O)COc2ccccc2C#N)c(=O)n(C)c1=O,-10.3%
CCCCN1CNC(=S)N(c2ccc(C(=O)OCC)cc2)C1,u
CCOC(=O)N1CCN(C(=O)CSCC(=O)Nc2nc(-c3ccc(Cl)s3)cs2)CC1,-4.5%

# (continued)
SMILES,VDR inhibitor
CC(C)[C@H](NC(=O)c1ccccc1Cl)C(=O)OCC(=O)NC(=O)NC1CCCC1,11.3%
C=CCC[C@H](Cc1ccc(F)cc1)C(=O)OC[C@@H](Cc1c[nH]c2ccccc12)NC(=O)[C@@H](CC=C)CC(=O)N(CCO)Cc1ccccc1,11.6%
O=C(CSC1=NCCS1)N1CCN(c2ccc(Cl)cc2)CC1,u
Cc1nn(CCCC(=O)Nc2cc(C(F)(F)F)ccc2Cl)c(=O)c2c1sc1ccccc12,2.3%
CN(C(=O)COC(=O)CNC(=O)c1sc2ccccc2c1Cl)c1ccccc1,-23.8%
O=C(Cn1cnc([N+](=O)[O-])c1)Nc1cc(Oc2ccc(Cl)cc2Cl)cc([N+](=O)[O-])c1,26.9%
N#Cc1cnn2c(N)c(-c3ccc(Cl)cc3)cnc12,11.7%
Cc1cccc(-n2c(C)cc(C)c(C#N)c2=O)c1,-4.3%
CCC(=O)c1ccc(N2CCN(C(=O)c3ccc(F)cc3)CC2)c(F)c1,-0.7%
CSc1ncc2c(=O)[nH]c(-c3ccccc3)nc2n1,3.5%
Cc1ccc(NC(=O)c2cc3ccccc3o2)nc1,-6.4%
COc1cc(NC(=O)COn2nnc3ccc(S(C)(=O)=O)cc32)cc(OC)c1,-5.5%
O=C(NCN1CCc2ccccc2C1)c1cnccn1,8.4%
CCOc1ccc(C2NC(=O)NC(C)=C2C(=O)OC)cc1C (configuration not stated),-4.9%
Nc1nc(N2CCOCC2)n[nH]1,8.8%
O=C(c1cc(-c2ccc(O)cc2)on1)N1CCCc2ccccc21,-8.7%
COC(=O)Cc1ccc(OC(=O)CCS(=O)(=O)c2ccc(Cl)cc2)cc1,-1.1%
COC(=O)c1cc(OC)c(OC)cc1NC(=S)N1CCN(C/C=C/c2ccccc2)CC1,u
CCSc1nc(-c2ccccc2)nc2c1Cc1c(CO)cnc(C)c1O2,11.3%
Cc1[nH]n(-c2ccccc2)c(=O)c1N=Nc1ccc2c(c1)OCCO2,-1.3%
CCn1cc(/C=N/NS(=O)(=O)c2ccc(C)cc2)c(C)n1,-17.5%
CC1(C)CC(=O)C2=C(C1)N=C1SCCC(=O)N1C2c1ccc(C(F)(F)F)cc1 (configuration not stated),2.0%
Cc1ccccc1C(=O)Nc1ccc(C(=O)N/N=C/c2ccncc2)cc1,-18.7%
CSCCC(NS(=O)(=O)c1ccc(C)cc1)C(=O)N1CCCCCCC1 (configuration not stated),-0.5%
CC(C)(C)c1cc(C(=O)N/N=C/c2cc3c(cc2Br)OCO3)n[nH]1,12.0%

# Next section, starting with the last seven of the part before.
SMILES,VDR inhibitor
CCSc1nc(-c2ccccc2)nc2c1Cc1c(CO)cnc(C)c1O2,11.3%
Cc1[nH]n(-c2ccccc2)c(=O)c1N=Nc1ccc2c(c1)OCCO2,-1.3%
CCn1cc(/C=N/NS(=O)(=O)c2ccc(C)cc2)c(C)n1,-17.5%
CC1(C)CC(=O)C2=C(C1)N=C1SCCC(=O)N1C2c1ccc(C(F)(F)F)cc1 (configuration not stated),2.0%
Cc1ccccc1C(=O)Nc1ccc(C(=O)N/N=C/c2ccncc2)cc1,-18.7%
CSCCC(NS(=O)(=O)c1ccc(C)cc1)C(=O)N1CCCCCCC1 (configuration not stated),-0.5%
CC(C)(C)c1cc(C(=O)N/N=C/c2cc3c(cc2Br)OCO3)n[nH]1,12.0%
Cc1cnc(C(=O)OCc2ccc(COC(=O)c3cnc(C)cn3)cc2)cn1,5.6%
COc1cccc(NC(=O)c2ccc(NS(=O)(=O)c3cccs3)cc2)c1,4.9%
COC(=O)[C@H](Cc1c[nH]c2ccccc12)NC(=O)NCc1ccc(OC)c(OC)c1,9.1%
O=C(CN(C1CCCCC1)S(=O)(=O)c1ccc(F)cc1)NCCCO,-0.6%
COC(=O)c1sc(NC(=O)CSc2n[nH]c(N)n2)c(C(=O)OC)c1C,-3.6%
Cc1ccc(-c2noc(=O)n2CC(=O)Nc2ccc(S(=O)(=O)NC3CC3)cc2)cc1,8.3%
Cc1ccc(NC(=O)c2c(C(F)(F)F)nn(C)c2Cl)cc1C,1.6%
Cc1ccccc1-c1nnc(Cc2ccccc2)o1,6.2%
CCOC(=O)C1=C(CS(=O)(=O)c2ccccc2)NC(=O)NC1c1ccc(OC)c(OC)c1 (configuration not stated),-10.0%
COc1ccc(CN2C(=O)c3cccnc3C2=O)cc1S(=O)(=O)NC1CCCCC1,-19.5%
COc1ccc(CCNC(=O)CCC2COc3ccccc3O2)cc1OC (configuration not stated),19.0%
CC[C@H](C)[C@H](N)C(=O)N[C@@H](CCCCN)C(=O)N[C@H](C(=O)N[C@@H](C)C(=O)N[C@H](C(=O)O)C(C)C)C(C)C,23.0%
Cc1c(C(=O)Nc2ccc(Br)cc2)cnn1C,-7.9%
Cc1cccc2c1OCC/C2=N\NC(=O)COc1ccccc1Cl,8.3%
COCCNc1nc(SCc2ccccc2)nc2sc3c(c12)CCC3,8.1%
CC(C)(C)C(=O)CSc1nnc(-c2cccs2)n1CC1CCCO1 (configuration not stated),-4.5%
COc1ccccc1OC(=O)CN1C(=O)c2ccccc2C1=O,-17.9%
